Compound activity as filed in PubChem.
MT1-MMP promoter – MT1-MMP gene expression reporter suppression – cell-based, luciferase reporter, luminescence (AID 618); MT1-MMP promoter luciferase reporter cells, luminescence; 87,000 compounds, 0.62% hits; calls from a first round at 10 µM; hits with a dose series show EC50 in µM;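 active means over half of the reporter light lost at 10 µM or EC50 under 50 µM; inactive means the rest and hits that failed the dose series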;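 further: actives suppress MT1-MMP promoter-driven transcription so potencies describe inhibitors; HT1080 fibrosarcoma cells; overnight exposure; toxic or luciferase-blocking compounds were not removed from the actives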
Hsc70 ATP site – Hsc70 inhibitors, probe displacement, primary screen, biochemical, fluorescence polarization (AID 568) | 83,000 tested, under 10 active | one-dose displacement, % at 20 µM; IC50 in µM for titrated hits | Hsc70 fluorescence polarization, probe displacement; higher % means a stronger effect; strong numbers were not always called active;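 active means displacement above 50% without optical interference and an IC50 on retest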;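 further: ATPase domain with a fluorescein-tagged ATP probe; 0% = vehicle and 100% = excess ADP; read after one hour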
WNV protease inh – inhibitors of West Nile virus NS2B-NS3 protease; 65,000 compounds, 0.18% hits; P06935; z-score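 (tested at a level between 10 and 100 µM)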; AID 577; WNV NS2B-NS3 protease, fluorogenic substrate Ex360/Em465; active compounds read low;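 active means z-score at -3 or under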;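 further: score is relative to mean and spread of the compound wells of a plate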
Target sequence (P06935 1371-1501 limits assumed): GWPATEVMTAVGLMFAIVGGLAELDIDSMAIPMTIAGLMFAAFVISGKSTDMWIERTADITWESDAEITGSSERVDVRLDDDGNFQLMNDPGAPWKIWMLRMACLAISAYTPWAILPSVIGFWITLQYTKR
Target sequence (P06935 1502-1679 limits assumed): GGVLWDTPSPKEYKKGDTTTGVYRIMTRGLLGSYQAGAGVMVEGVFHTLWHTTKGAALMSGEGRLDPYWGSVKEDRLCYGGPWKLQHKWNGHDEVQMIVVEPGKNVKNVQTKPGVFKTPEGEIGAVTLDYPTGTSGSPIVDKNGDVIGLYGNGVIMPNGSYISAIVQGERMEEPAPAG
* hit, by the source's call; i = inactive; . = not tested or not shown. The list is partial (hit frequency here may not be typical).

SMILES	MT1-MMP promoter	Hsc70 ATP site	WNV protease inh
CCn1c(Cc2ccc(OC)cc2)nnc1SCC(=O)Nc1cccc(C(=O)OC)c1	i	2.3%	-0.57
COc1ccc(N(C(=O)c2ccco2)C(C(=O)NC2CCCC2)c2cccs2)cc1OC (stereo unspecified)	i	-3.4%	.
O=C(CCSCCC(=O)NCC1CCCO1)NCC1CCCO1 (stereo unspecified)	i	6.7%	-0.67
O=C(CSc1nc(Nc2ccccc2)nc(N2CCOCC2)n1)Nc1ccccc1Cl	i	-5.8%	0.22
Cc1cc(=O)oc2ccc(OCC(=O)N(Cc3ccc(F)cc3)Cc3ccco3)cc12	i	5.5%	0.32
CN=C1SC(CC(=O)Nc2ccc(C(=O)O)cc2)C(=O)N1C (stereo unspecified)	i	0.8%	.
COc1cc(C(=O)Nc2ccc(O)cc2)ccc1OC(C)=O	i	2.2%	.
Cc1ccc(C)c(CSc2nnc(-c3cccs3)n2Cc2ccco2)c1	i	-0.1%	.
CN1C(=O)c2ccccc2Sc2ccc(NC(=O)N3CCCC3)cc21	i	-5.8%	0.41
O=C(NS(=O)(=O)c1ccc2c(c1)OCCO2)c1ccccc1	i	-0.4%	0.12
CCOC(=O)C1CCN(c2c(Nc3ccc4c(c3)OCCO4)c(=O)c2=O)CC1	i	1.9%	-1.1
CCOC(=O)C1CCCN(C(=O)CCCOc2cc(=O)n(C)c3ccccc23)C1 (stereo unspecified)	i	2.6%	-0.31
CCOC(=O)N1CCN(c2ccc(S(=O)(=O)N(Cc3ccccc3)Cc3ccccc3)cn2)CC1	i	-6.4%	-0.07
CCOc1ccc(N2CC(=O)SC2=S)cc1	i	0.9%	1
COc1ccc2c(c1OC)C(=O)N1c3ccccc3C(=O)N(c3ccc(F)cc3)C21 (stereo unspecified)	i	-2.0%	0.05
COc1ccc(-c2cn3cc(C)ccc3n2)cc1OC	i	1.1%	0.56
Cc1cccc(N2C(=O)CS/C2=N\NC(=O)c2ccc(Cl)cc2)c1C	i	1.1%	.
CC(C)CN(C#N)c1nc(N2CCOCC2)nc(N2CCOCC2)n1	i	-6.6%	-2
Cc1ccc(-c2cc(C(=O)Nc3cc(C)on3)c3ccccc3n2)c(C)c1	i	0.7%	-0.44
CN(C)c1nc(C#N)nc(N2CCOCC2)n1	i	-4.8%	.
O=C(COc1cccc(Cl)c1)Nc1ccc(N2CCOCC2)cc1	i	-2.4%	.
Cc1nc(NC2=NCN(Cc3ccco3)CN2)nc2ccccc12	i	-1.0%	0.16
O=C(Cc1cn2ccsc2n1)NCc1ccccc1	i	1.5%	0.66
COC(=O)c1oc2ccc(Cl)cc2c1N	i	0.5%	.
Cc1ccc(S(=O)(=O)Nc2cccc3cccnc23)cc1	i	-0.4%	.

A second format for some results above:
mol | MT1-MMP promoter | Hsc70 ATP site | WNV protease inh
CN=C1SC(CC(=O)Nc2ccc(C(=O)O)cc2)C(=O)N1C (stereo unspecified) | i | 0.8% | .
COc1cc(C(=O)Nc2ccc(O)cc2)ccc1OC(C)=O | i | 2.2% | .
Cc1ccc(C)c(CSc2nnc(-c3cccs3)n2Cc2ccco2)c1 | i | -0.1% | .
CN1C(=O)c2ccccc2Sc2ccc(NC(=O)N3CCCC3)cc21 | i | -5.8% | 0.41
O=C(NS(=O)(=O)c1ccc2c(c1)OCCO2)c1ccccc1 | i | -0.4% | 0.12
CCOC(=O)C1CCN(c2c(Nc3ccc4c(c3)OCCO4)c(=O)c2=O)CC1 | i | 1.9% | -1.1
CCOC(=O)C1CCCN(C(=O)CCCOc2cc(=O)n(C)c3ccccc23)C1 (stereo unspecified) | i | 2.6% | -0.31
CCOC(=O)N1CCN(c2ccc(S(=O)(=O)N(Cc3ccccc3)Cc3ccccc3)cn2)CC1 | i | -6.4% | -0.07
CCOc1ccc(N2CC(=O)SC2=S)cc1 | i | 0.9% | 1
COc1ccc2c(c1OC)C(=O)N1c3ccccc3C(=O)N(c3ccc(F)cc3)C21 (stereo unspecified) | i | -2.0% | 0.05
COc1ccc(-c2cn3cc(C)ccc3n2)cc1OC | i | 1.1% | 0.56
Cc1cccc(N2C(=O)CS/C2=N\NC(=O)c2ccc(Cl)cc2)c1C | i | 1.1% | .
CC(C)CN(C#N)c1nc(N2CCOCC2)nc(N2CCOCC2)n1 | i | -6.6% | -2

Further entries:
SMILES	MT1-MMP promoter	Hsc70 ATP site	WNV protease inh
O=C(Cn1[nH]c(=O)c2ccccc2c1=O)NC1CCCCCC1	i	1.7%	.
CN1CCN(C(CNS(=O)(=O)c2ccc(F)cc2)c2cccnc2)CC1 (stereo unspecified)	i	-2.1%	-0.33
O=C(Nc1ccccc1)NC1CCCCC1	i	1.7%	.
Cc1cccc2cc(COC(=O)c3ccccn3)c(=O)[nH]c12	i	-7.7%	0.37
O=C(CSc1nnc(-c2cnccn2)n1Cc1ccco1)c1ccc(Cl)c(Cl)c1	i	-12%	-0.49
Cc1cc(/C=N/n2cnnc2)c(C)n1-c1cccc(C(=O)O)c1	i	0.5%	2.5
O=C(NCCSCc1c(F)cccc1Cl)c1ccco1	i	1.9%	0.7
Cc1noc(C)c1CSc1ccccc1C(=O)Nc1nccs1	i	-0.6%	-0.92
O=C(Nc1ccc(Cl)cc1C(=O)NCc1cccnc1)c1ccco1	i	3.0%	-0.43
O=C(c1cnccn1)N1CCc2ccccc21	i	-4.8%	0.11
CC(NC(=O)NC1CCCCC1)C(c1cccs1)N1CCOCC1 (stereo unspecified)	i	3.9%	-1.2
C=CCn1c(SCc2ccc(F)cc2)nc2c1c(=O)[nH]c(=O)n2C	i	-0.1%	0.43
CC1CCc2sc3c(c2C1)c1ncnn1c(=O)n3CC(=O)c1ccc(Br)cc1 (stereo unspecified)	i	-3.7%	0.92
COc1ccc(S(=O)(=O)N2CCN(Cc3ccc(Cl)cc3)CC2)cc1	i	-4.6%	0.85
CCOc1ccc(NC(=O)CSCC(=O)O)cc1	i	5.5%	.
C=CCN1C(=O)NC2(O)C(=O)c3ccccc3C12O (stereo unspecified)	i	1.3%	.
Cc1ccc(SCC(=O)N(Cc2nc(-c3ccccc3)no2)C(C)C)cc1	i	8.7%	-0.37
c1ccc(CN2CCC(N3CCN(Cc4ccc5c(c4)OCO5)CC3)CC2)cc1	i	1.2%	-0.04
CCc1ccc(C(=O)Cn2ncc(Cl)c(Cl)c2=O)cc1	i	-3.1%	.
O=c1cnn([C@@H]2O[C@H](CO)[C@@H](O)[C@H]2O)c(=O)[nH]1	i	4.9%	0.24
CCC(=O)Nc1cc(NC(=O)CSc2nnc(C(C)C)n2CC)ccc1C	i	-11%	-0.09
CCOc1nc(-c2ccncc2)nc2ccccc12	i	-0.2%	-0.7
COc1cc(-c2csc(N3CCOCC3)n2)cc(OC)c1OC	i	-1.8%	-1.2
Cn1c(=O)c(=O)n(C)c2cc(S(=O)(=O)N3CCCCC3)ccc21	i	-2.0%	-0.23
Cc1cccc(C)c1NC(=O)C1CCCNC1 (stereo unspecified)	i	0.8%	1.3

Other compounds follow:
SMILES	MT1-MMP promoter	Hsc70 ATP site	WNV protease inh
CCn1c(=O)c(C(=O)Nc2cnccn2)c(O)c2ccccc21	i	-0.9%	0.19
CN(C(=O)c1ccncc1)c1nnc(-c2cnccn2)s1	i	2.2%	0.44
COC(=O)c1cccc(C(=O)Nc2cnc3ccccc3c2)n1	i	0.0%	0.12
CC1(C)CN=C(NC2CCCCC2)S1	i	3.2%	0.89
COc1cccc(-c2cc(C(=O)Nc3ccc(OC)c(OC)c3)no2)c1	i	-9.2%	-0.75
O=C1CC(c2cccnc2)c2cc3c(cc2N1)OCCO3 (stereo unspecified)	i	6.8%	0.41
Cc1nn(Cc2ccccc2)c(N)c1-c1ccccc1	i	-3.6%	-0.45
COc1ccc(CSc2nnc(N)s2)cc1F	i	-5.5%	-0.64
N#CC1=C(N)N(c2ccccc2)C(=O)C1	i	-5.0%	.
Cc1occc1-c1nnc(SCC(=O)Nc2ccc(F)cc2)n1Cc1ccccc1	i	-4.0%	1.7
C=CCn1c(O)c(C2=c3ccccc3=NC2=O)sc1=Nc1ccc(O)cc1	i	-2.3%	-0.97
Cn1nnc(NC(=O)C(c2ccccc2)c2ccccc2)n1	i	-4.6%	1.6
COc1cccc(-c2nc(N3CCCCC3C)c3ccccc3n2)c1O (stereo unspecified)	i	0.6%	0.79
O=C(c1csc2ccccc12)N1CCN(c2ccccn2)CC1	i	-8.2%	-0.76
CCOC(=O)C1=C(C)NC(SCC(=O)Nc2nc(C)cs2)=C(C#N)C1c1cccs1 (stereo unspecified)	i	1.4%	-0.02
O=C(NCN1C(=O)C2C3C=CC(C3)C2C1=O)Nc1nccs1 (stereo unspecified)	i	1.5%	-0.2
CCOc1ccc2[nH]c(=O)c(CN(Cc3ccco3)C(CC)c3nnnn3Cc3ccccc3)cc2c1 (stereo unspecified)	i	1.1%	-1.1
CCC(=O)N(Cc1ccc(S(N)(=O)=O)cc1)C1CC(=O)N(c2ccc(OC)cc2)C1=O (stereo unspecified)	i	-5.7%	2
O=C(Nc1ccccc1N1CCN(C(=O)c2ccc(Cl)cc2)CC1)c1cc2ccccc2o1	i	2.1%	0.85
Cc1cccc(-c2nsc(SCC(=O)NCc3ccco3)n2)c1	i	1.2%	-0.45
COc1ccc(CN2C3CCCC2CC(NC(=O)Nc2ccccc2)C3)cc1 (stereo unspecified)	i	-4.2%	.
CC(C)c1ccccc1NC(=O)CCCC(=O)O	i	3.2%	-0.0086
Cc1ccc(C(=O)Oc2oc(-c3ccco3)nc2C=Nc2ccccc2)cc1	i	2.5%	.
Cc1cc(C)cc(OCc2nnc(SCC(=O)OC(C)C)o2)c1	i	1.4%	.
CCN(CC)S(=O)(=O)c1ccc2c(c1)C(=NO)c1cc(S(=O)(=O)N(CC)CC)ccc1-2	i	4.1%	.

(listing goes on)
SMILES	MT1-MMP promoter	Hsc70 ATP site	WNV protease inh
CCOC(=O)C(CC)Sc1nc(-c2ccc(OC)cc2)nc2c1c(=O)n(C)c(=O)n2C (stereo unspecified)	i	-3.3%	1.2
COc1ccc(-n2nc(C(=O)N3CCN(Cc4ccc5c(c4)OCO5)CC3)c3ccccc3c2=O)cc1	i	4.7%	-0.2
O=C(COc1ccc2ccccc2c1)N1CCN(C(=O)c2cccs2)CC1	i	-3.2%	.
Cc1ccc(C)c(N(CC(=O)NC2CCCC2)C(=O)CCCC(=O)Nc2ccccn2)c1	i	4.6%	-0.34
O=C(Cc1sc(-c2ccccc2)nc1-c1ccccc1)Nc1ccccc1	i	-0.3%	.
CC1CC(=O)c2cnc(Nc3ccccc3)nc2C1 (stereo unspecified)	i	0.3%	.
CCOC(=O)C1=NN(c2ccccc2)C2(S1)SC(C(C)=O)=C(C)N2c1ccccc1 (stereo unspecified)	i	3.4%	.
CCn1c(SCC(=O)Nc2cc(C)on2)nnc1-c1ccccc1	i	4.1%	.
COc1cccc(Cn2c(C3CC3)nc3ccc(NC(=O)c4ccco4)cc3c2=O)c1	i	-1.8%	-0.94
O=C(Nc1nccs1)c1c(O)c2cccc3c2n(c1=O)CCC3	i	-43%	-0.09
Cc1ccc2[nH]c(-c3ccccc3)c(CN(C)C)c(=O)c2c1	i	-0.7%	.
Cn1c(=O)oc2cc(S(=O)(=O)NC(Cc3ccccc3)C(=O)N3CCCCC3)ccc21 (stereo unspecified)	i	5.1%	-0.29
Cc1cccc(C(=O)Oc2ccccc2C2C[C@]3(C)CC(=O)NC3N2C(=O)c2cccc(C)c2)c1 (stereo partly specified)	i	0.4%	.
COc1cccc(CC(NC(C)=O)C(=O)NC2CCN(S(=O)(=O)c3ccc4ccccc4c3)CC2)c1 (stereo unspecified)	i	5.1%	.
CCCC(=O)n1nc(-c2ccccc2)nc1SC	i	-0.6%	.
CCCCc1cc(=O)oc2cc(C)cc(OC(C)C(=O)O)c12 (stereo unspecified)	i	0.9%	0.29
CCOC(=O)c1cnc(SC2CC(=O)N(c3ccc(C)cc3)C2=O)nc1N (stereo unspecified)	i	-2.1%	.
Cc1ccccc1C(=O)N1CCC(C(=O)Nc2cccc(F)c2)CC1	i	3.8%	-0.53
CCOC(=O)c1cc2cc(F)ccc2nc1C	i	3.0%	0.01
COc1ccc(-c2c3c(=O)n(C)c(=O)n(C)c3cn2-c2ccccc2)cc1	i	-2.0%	-0.87
CCOC(=O)c1sc(NC(=O)c2ccc(Cl)s2)cc1C	i	-0.9%	0.47
CCOCCCNC(=O)C(NC(=O)CNC(=O)c1ccccc1)c1ccc(C)cc1 (stereo unspecified)	i	0.8%	.
CCCCn1c(=O)cc(N2CCOCC2)[nH]c1=O	i	-1.3%	1.1
CCOCCCNC(=O)c1ccc(CS(=O)(=O)Cc2cccc(C)c2)o1	i	0.6%	-0.58
O=S(=O)(CCSc1nc2ccccc2o1)Cc1ccccc1	i	0.8%	-1.9

Continued:
SMILES	MT1-MMP promoter	Hsc70 ATP site	WNV protease inh
Cc1ccccc1OCc1nnc(SCC(=O)N2CCc3ccccc32)n1C	i	-0.2%	.
COc1ccc(-c2nnc(SCc3ccccc3F)o2)cc1	i	-1.4%	.
O=C(c1ccc(Br)cc1)N1CCN(S(=O)(=O)c2ccccc2)CC1	i	1.2%	0.26
N#Cc1nc(-c2ccc(OCc3ccccc3)cc2)oc1N1CCC(C(N)=O)CC1	i	0.5%	0.22
O=C(CCCN1C(=O)c2ccccc2C1=O)OC1CSCC1NC(=O)c1ccccc1 (stereo unspecified)	i	-4.7%	.
CSc1ccccc1NC(=O)c1cc(C)on1	i	0.4%	.
COc1cc(OC)cc(-n2nc(C(=O)NCCCN3CCOCC3)c3ccccc3c2=O)c1	i	-6.5%	0.29
CN(C)CCNc1oc(COc2ccc(Cl)cc2)nc1C#N	i	1.8%	0.28
